NPYLR7 agonist: activates Aedes aegypti NPYLR7 receptor | HEK293T NPYLR7/Galpha15, GCaMP6s calcium fluorescence | activation, % at 10 µM | 270,000 compounds, 0.15% hits; in the data active means activation above about 40%;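 further: 0% = vehicle and 100% = reference agonist at the receptor; some compounds past the cut are filed as inactive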
NPYLR7 agonist max-min: second read-out of NPYLR7 agonist, no call of its own (marks repeat the call); activation, %; measured here: Max-Min RFU normalised activation; some inactives read as strong as hits;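 span of the calcium signal over five minutes; 0% = vehicle and 100% = native peptide agonist; compound fluorescence can raise it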
Starred values were filed as active, the others as inactive; & = joins results of further samples. The list is partial; the hit share may differ from the screen's.

1) CN(C)S(=O)(=O)c1ccc(OCCOc2ccccc2F)cc1
2) CC1(C)CC(Nc2cc(Cl)nc(N)n2)CC(C)(C)N1
3) CCCCCCCCCCCCCCCCCC(=O)NCC(COP(=O)(O)OCC[N+](C)(C)C)OCC (centres undefined)
4) Cc1[nH]c2c(C(=O)N3CC[C@H](O)C[C@@H]3C(=O)O)cccc2c1C
5) O=C(CCCn1c(=O)oc2ccccc21)Nc1cccc(-c2ccsc2)c1
6) COC(=O)c1cc(Br)ccc1S(=O)(=O)Nc1c(C)cccc1C(C)C
7) CN(C)CCCn1ccnc1-c1ccnn1-c1ccccc1
8) COC(=O)[C@H](CC1CCCCC1)NC(=O)[C@@H]1C[C@@H](NC(=O)Nc2cccc(F)c2)CCN1C(=O)CCC(=O)O
9) CCOc1ccccc1N1CCN(C(=O)CN(C)c2nc(Cc3ccc(Cl)cc3)ns2)CC1
10) Nc1nnc(SCC(=O)Nc2ccccc2N2CCOCC2)s1
screen / no.	1	2	3	4	5	6	7	8	9	10
NPYLR7 agonist	2.0	-10.2	-7.8	-1.5	6.9	-1.3	6.7	-5.2	-7.8	22.9
NPYLR7 agonist max-min	0.8	-15.9	-9.9	-3.2	4.6	-7.8	1.2	-11.1	3.5	13.0

11) O=C(CSc1ccc(-c2ccc(-n3ccnc3)cc2)nn1)NCc1ccc(F)cc1
12) O=C(NCCOc1ccccc1F)N1CCN(S(=O)(=O)c2ccc(Cl)c(Cl)c2)CC1
13) Cc1ccccc1Nc1nc(Cl)nc(N2CCOCC2)n1
14) Cc1oc(-c2ccc(OC(C)C)cc2)nc1Cn1c(=O)n(C(C)C)c(=O)c2ccccc21
15) CC(=O)Nc1ccc(CN(C)c2c(C)nc3ccc(C(=O)NCCc4ccccn4)cn23)cc1
16) CCCc1cc(=O)[nH]c(-n2nc(C)cc2NC(=O)C(CC)c2ccccc2)n1 (centres undefined)
17) Cc1ccccc1-c1noc(CN2CCN(CCO)CC2)n1
18) COc1cccc(COC(CN2CCN(C(=O)c3cc(C)n(C)n3)CC2)c2ccc(Cl)cc2)c1 (centres undefined)
19) COC(=O)c1cc(C(C)C)nc2c1c(-c1ccc(Cl)cc1)nn2C1CCS(=O)(=O)C1 (centres undefined)
20) COc1ccc(C(=O)NCc2ccc(NC(=O)C3CC3)cc2)c(OC)c1OC
screen / no.	11	12	13	14	15	16	17	18	19	20
NPYLR7 agonist	-12.7	-5.2	7.0	-2.4	12.0	-7.4	-1.1	6.6	1.3	4.1
NPYLR7 agonist max-min	-5.8	-6.6	-6.2	-8.2	-1.4	-8.5	-2.0	-1.3	0.5	3.1

21) COc1ccc(NC2CCCN(C(=O)c3cccc(-c4ccccc4)c3)C2)cc1 (centres undefined)
22) CC1(C)OCC(CN2C(=O)c3ccccc3NC2c2c[nH]c3cnc(OCc4ccccc4)cc23)O1 (centres undefined)
23) CN(C(=O)c1cc2cccnc2n(Cc2ccc(F)cc2)c1=O)C1CCCCC1
24) O=C(C1CC1)N1CCN2C[C@@H](CO)[C@H](c3ccccc3)[C@H]2C1
25) O=C1c2ccccc2-n2c1nc1ccccc1c2=O
26) O=c1oc2ccc(Br)cc2cc1-c1csc(Nc2ccc(F)cc2)n1
27) Cc1cccnc1CN1CCN(Cc2cnc(N(C)C)s2)CC1
28) O=S(=O)(NCCc1csc2nc(-c3cccs3)nn12)c1cc(F)ccc1F
29) CN(C)CCNc1ccc2c(-c3ccccc3F)noc2n1
30) CCC1CN(C(C)=O)CCC1NC(C)C(=O)NC(C)(C)C (centres undefined)
screen / no.	21	22	23	24	25	26	27	28	29	30
NPYLR7 agonist	5.8	-1.2	15.2	10.1	2.7&13.3	3.6	2.7	0.4	0.8	2.8
NPYLR7 agonist max-min	3.9	-3.7	6.7	18.0	1.8&8.2	-5.7	10.8	-0.8	-2.1	2.7

Profiles, looked up by structure. Values in the order: NPYLR7 agonist | NPYLR7 agonist max-min
`O=S(=O)(NCCc1csc2nc(-c3cccs3)nn12)c1cc(F)ccc1F` is listed with 0.4 | -0.8
`O=c1oc2ccc(Br)cc2cc1-c1csc(Nc2ccc(F)cc2)n1` is listed with 3.6 | -5.7
`CCC1CN(C(C)=O)CCC1NC(C)C(=O)NC(C)(C)C` (centres undefined) is listed with 2.8 | 2.7
`COc1ccc(NC2CCCN(C(=O)c3cccc(-c4ccccc4)c3)C2)cc1` (centres undefined) is listed with 5.8 | 3.9
`Cc1cccnc1CN1CCN(Cc2cnc(N(C)C)s2)CC1` is listed with 2.7 | 10.8

(cont.)
31) CC(C)Oc1ccc(CNCc2cscn2)c(C(F)(F)F)c1
32) Cc1cccc(NC(=O)CSc2nc3c(c(=O)n2Cc2ccccc2)SCC3)c1C
33) O=C(Cn1nnc2sc3c(c2c1=O)CCCC3)NCc1ccco1
34) CC1CN(c2nc(Cc3ccc(Cl)cc3)ns2)CCN1C(=O)Nc1ccc(F)cc1F (centres undefined)
35) COC(=O)C1CSc2[nH]c(=O)sc2C1c1ccc(OC)c(OC)c1 (centres undefined)
36) CCOC(=O)c1nn(-c2ccc(F)cc2)c(=O)cc1N1CCC2(CC1)OCCO2
37) CCC(C)C(NS(=O)(=O)c1ccc2ccccc2c1)C(=O)Nc1nnc(-c2ccc(C)cc2)s1 (centres undefined)
38) CC(c1ccc(F)c(F)c1)N(C)C(=O)Nc1ccccc1N1CCCC1 (centres undefined)
39) Clc1ccc(CN2COc3cc4c(cc3C2)OCO4)cc1
40) O=S(=O)(c1ccc(C2CCCCC2)cc1)N1CCCC1c1nnc2ccccn12 (centres undefined)
screen / no.	31	32	33	34	35	36	37	38	39	40
NPYLR7 agonist	1.9	-1.9	-0.4	12.3	15.9	8.6	22.1	2.9	3.4	-0.2
NPYLR7 agonist max-min	0.7	-8.0	-4.4	12.4	4.9	2.4	23.4	-2.3	-2.2	4.6

Quoted at random: six compounds from above, in no set order.
37) CCC(C)C(NS(=O)(=O)c1ccc2ccccc2c1)C(=O)Nc1nnc(-c2ccc(C)cc2)s1 (centres undefined)
31) CC(C)Oc1ccc(CNCc2cscn2)c(C(F)(F)F)c1
35) COC(=O)C1CSc2[nH]c(=O)sc2C1c1ccc(OC)c(OC)c1 (centres undefined)
32) Cc1cccc(NC(=O)CSc2nc3c(c(=O)n2Cc2ccccc2)SCC3)c1C
36) CCOC(=O)c1nn(-c2ccc(F)cc2)c(=O)cc1N1CCC2(CC1)OCCO2
40) O=S(=O)(c1ccc(C2CCCCC2)cc1)N1CCCC1c1nnc2ccccn12 (centres undefined)
screen / no.	37	31	35	32	36	40
NPYLR7 agonist	22.1	1.9	15.9	-1.9	8.6	-0.2
NPYLR7 agonist max-min	23.4	0.7	4.9	-8.0	2.4	4.6

(next part)
41) Cc1ccc(-c2ccc(SCC(=O)N3CCc4ccccc43)nn2)cc1
42) CCOC(=O)C1(CC2CC2)CCN(Cc2cn(CC(N)=O)c3ccccc23)CC1
43) CC(C(=O)Nc1ccccc1)N1C(=O)CC2(CCCC2)C1=O (centres undefined)
44) CCOc1ccc(S(=O)(=O)NCCn2nc(-c3ccccc3)ccc2=O)cc1
45) O=C(Nc1cc(-c2ccccc2)nn1-c1cccc(F)c1)c1ccc(F)c(Cl)c1
46) COc1cccc(-c2nnc(NC(=O)C3CCCN3C(=O)Nc3cccc(C)c3C)s2)c1 (centres undefined)
47) C=CCOc1cccc(/C=N\Nc2nc(C)cc(COC)c2C#N)c1
48) CCN(C1CCN(C(=O)c2ccccc2Cl)CC1)S(C)(=O)=O
49) COC(=O)c1ccc(CN(Cc2ccco2)CC2CCCO2)o1 (centres undefined)
50) Cc1cc(F)ccc1S(=O)(=O)Nc1cc(Cl)ccc1Sc1nncn1C
screen / no.	41	42	43	44	45	46	47	48	49	50
NPYLR7 agonist	2.8	5.0	3.0	11.0	9.0	11.6	2.0	0.3	-6.1	1.4
NPYLR7 agonist max-min	2.1	0.6	0.2	8.5	-1.8	23.6	10.6	-12.1	-3.3	0.1

51) Cn1c(=O)cc2c3c(c(Br)ccc31)C(=O)c1ccccc1-2
52) O=C(CCc1ccc(S(=O)(=O)N2CCCCC2)cc1)N1CCC(c2ccc(O)cc2)CC1
53) COc1ccc2[nH]c(-c3nn4c(C(C)C)nnc4s3)cc2c1
54) CCN1CCCC1CN(CC1CCN(CCOC)CC1)C(=O)c1ccsc1 (centres undefined)
55) CC(=O)Nc1ccc(NC(=O)c2nn(C)cc2Br)cc1
56) Cc1nc2ncnn2c(N2CCN(S(=O)(=O)c3ccc(Br)cc3)CC2)c1Cc1ccccc1
57) CC1(Cc2cc(Cl)ccc2C(F)(F)F)C(=O)Nc2c(Cl)cccc21 (centres undefined)
58) CN(CCc1nc2ccccc2[nH]1)C(=O)c1cccc(-n2cccn2)c1
59) Cc1cccc(-n2nc(C(=O)NC3CC3)c(=O)n(Cc3cccc(C(F)(F)F)c3)c2=O)c1
60) O=C(c1ccc2ncsc2c1)N1CCC(n2cnc3ccccc32)CC1
screen / no.	51	52	53	54	55	56	57	58	59	60
NPYLR7 agonist	-1.0	12.2	5.4	2.8	-13.3	28.9	3.7	2.2	8.5	6.2
NPYLR7 agonist max-min	-9.6	9.6	3.9	2.1	-24.8	14.5	8.2	1.8	5.3	10.9

61) Cc1cc(C)n2ncc(CN(C)C(C)c3ccccn3)c2n1 (centres undefined)
62) Cc1nn(C)c(Cl)c1CNCc1cccc(CN2CCOCC2)c1
63) O=c1[nH]c(-c2sc3ccccc3c2O)nc2cc(Cl)ccc12
64) CCOc1ccc(-c2nc(COC(=O)c3nnn(-c4ccc(F)cc4)c3C)c(C)o2)cc1OC
65) O=C(CSc1nc2ccccc2n1Cc1ccccc1)c1ccc(Br)cc1
66) CC(C)(C)c1cc2nc(-c3ccc(F)cc3)cc(C(=O)NCc3ccncc3)n2n1
67) Cc1ccccc1NC(=O)CSc1nc(N)c(NC(=O)c2ccc(C(F)(F)F)cc2)c(=O)[nH]1
68) CCc1ccc2oc3c(c(=O)c2c1)C(c1cccc([N+](=O)[O-])c1)N(c1cc(C)on1)C3=O (centres undefined)
69) COc1nc(-c2cccc(C(F)(F)F)c2)n(-c2cccc(NC(=O)CC(C)C)c2)n1
70) COc1ccccc1NC(=O)CSc1nc(=O)n2cc(C)ccc2n1
screen / no.	61	62	63	64	65	66	67	68	69	70
NPYLR7 agonist	-1.5	4.4	1.3	8.6	1.7	3.5	1.6	1.4	20.9	1.9
NPYLR7 agonist max-min	-1.5	1.7	-1.6	-4.3	-4.0	10.7	-0.5	0.5	17.0	2.1

71) CCOC(=O)C(c1cc(OC)ccc1OC)C1C=CC(NC(=O)c2cccc(OC(F)(F)F)c2)C1 (centres undefined)
72) c1cnn(Cc2ccc(CN3CCC4(CCNCC4)C3)cc2)c1
73) Cc1nc2c(c(N3CCCCC3)n1)CN(C(=O)Nc1ccc(Cl)cc1Cl)CC2
74) O=C(CSc1nnc(C2CC2)n1C1CC1)Nc1ccnn1C1CCCC1
75) N=C(N)SCCS(=O)(=O)CCO
76) COc1ccc(CC(=O)Nc2ccc(C3SCC(=O)N3c3cc(C)ccc3F)cc2)cc1 (centres undefined)
77) Cc1cccc(N=Nc2c(C)nn(-c3ccccc3)c2N)c1C
78) CCOC(=O)N1CCC(NC(=O)C2(c3ccccc3C)CCOCC2)CC1
79) COC(=O)C1=C(C)NC2=C(C(=O)CC(c3ccccc3Cl)C2)C1c1ccc(N(C)C)cc1 (centres undefined)
80) CCOc1ccc(C(C)NC(=O)CN2C(=O)NC3(CCCCC3)C2=O)cc1 (centres undefined)
screen / no.	71	72	73	74	75	76	77	78	79	80
NPYLR7 agonist	5.2	4.7	10.4	2.0	7.8	10.9	3.7	11.7	-2.6	14.8
NPYLR7 agonist max-min	3.3	2.9	6.3	13.1	5.0	20.1	0.7	7.5	-7.1	11.7

81) CC1(O)N(CCC#N)C(=O)OC12CCCCC2 (centres undefined)
82) COCC(C)n1c(SCCc2ccccc2)nc2ccccc2c1=O (centres undefined)
83) CCCN(CC(=O)N(CCc1ccc(OC)c(OC)c1)Cc1sccc1C)C(=O)Nc1ccc(C)c(C)c1
84) O=S(=O)(c1cc(Cl)ccc1Cl)N(Cc1ccco1)C(F)F
85) CCCc1[nH]n(-c2cccc(Cl)c2)c(=O)c1/C=C1\NC(=O)N(Cc2cccc(C#N)c2)C1=O
86) COc1ccc(CCOC(=O)[C@@H]2CCCN2C(=O)C=C(C)C)cc1OC
87) COCCN(CCC#N)S(=O)(=O)c1ccc(F)cc1F
88) C=CCN(Cc1ccccc1OCC)C(=O)c1cccc2c1OCCO2
screen / no.	81	82	83	84	85	86	87	88
NPYLR7 agonist	-3.1	-0.5	-1.7	6.6&-7.1	14.7	-7.9	5.7	0.6
NPYLR7 agonist max-min	-2.6	7.6	4.1	13.4&-8.0	26.2	-10.2	5.7	-0.5

Screening results from PubChem.
